HNF4A DNA FP – change in binding of human HNF4A to DNA, primary screen, biochemical, fluorescence polarization, FITC-DNA. Hepatocyte nuclear factor 4-alpha (Homo sapiens), P41235. 1 h. activity change, % at 10 µM. 360,000 tested, 0.3% active. AID 1224865, 2016; in the data active = activity change above about 30%, passing the limit was not always enough;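 also: controls were the assay level and a saturating level of protein; the project sought stronger binding though the title names inhibitors; some compounds called inactive have numbers as strong as hits; positive values seem to mean higher polarization but the record does not say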
B2AR ag – beta2AR agonists driving receptor internalization, primary screen, cell-based, FAP fluorogen, flow cytometry; Beta-2 adrenergic receptor (Homo sapiens), P07550; Am2.2-beta2AR cells; reference of the scale not given here; response, % (no concentration beside the values); 340,000 tested, 0.43% active; AID 504454, 2011;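 active = response above a set limit, near 3 SD of response in nonfluorescent compounds, cut at about 42% in these data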;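 also: stock transfer was 100 nL into about 11 µL; a reference agonist was the positive control; negative values mostly stem from fluorescent compounds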
Vif TR-FRET – inhibitors of Vif binding to APOBEC3G peptide, primary screen, biochemical, TR-FRET, GST-Vif 1-94, biotin-A3G peptide, dose response retest (AID 1117319); inhibition, %; hits with a dose series show IC50 in µM; TR-FRET GST-Vif / biotin-A3G peptide binding; higher % means a stronger effect; test concentration not given here; strong numbers were not always called active; Virion infectivity factor (Human immunodeficiency virus type 1 group M subtype B (isolate …; 260,000 tested, 0.57% active;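 active = above the screen mean plus three standard deviations and confirmed in dose response; inconclusive = results disagree or hit not tested in dose response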;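 also: Vif residues 1-94 fused to GST binding biotinylated APOBEC3G peptide 110-148; 0% = full assay without inhibitor and 100% = GST in place of GST-Vif; retest series ran down from 100 µM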
LANA-H2B inh – blockers of LANA interaction with H2A/H2B – biochemical, FP readout, HTS, primary screen; Protein LANA1 (Human herpesvirus 8 type P (isolate GK18)), Q9QR71; cell-free LANA-H2A/H2B peptide, fluorescence polarization; inhibition, % (concentration not given with the values); 320,000 tested, 0.6% active; in the data active = inhibition mostly above about 10%, no sharp cut-off; inactive = mostly below about 6.7%;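 also: stock transfer was 7.5 nL into about 10 µL; 0% = median of vehicle wells and 100% = median of positive control wells; one replicate is shown; the record names a cut of 25% in any replicate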
Target sequence (Q9QR71 whole entry, looked up): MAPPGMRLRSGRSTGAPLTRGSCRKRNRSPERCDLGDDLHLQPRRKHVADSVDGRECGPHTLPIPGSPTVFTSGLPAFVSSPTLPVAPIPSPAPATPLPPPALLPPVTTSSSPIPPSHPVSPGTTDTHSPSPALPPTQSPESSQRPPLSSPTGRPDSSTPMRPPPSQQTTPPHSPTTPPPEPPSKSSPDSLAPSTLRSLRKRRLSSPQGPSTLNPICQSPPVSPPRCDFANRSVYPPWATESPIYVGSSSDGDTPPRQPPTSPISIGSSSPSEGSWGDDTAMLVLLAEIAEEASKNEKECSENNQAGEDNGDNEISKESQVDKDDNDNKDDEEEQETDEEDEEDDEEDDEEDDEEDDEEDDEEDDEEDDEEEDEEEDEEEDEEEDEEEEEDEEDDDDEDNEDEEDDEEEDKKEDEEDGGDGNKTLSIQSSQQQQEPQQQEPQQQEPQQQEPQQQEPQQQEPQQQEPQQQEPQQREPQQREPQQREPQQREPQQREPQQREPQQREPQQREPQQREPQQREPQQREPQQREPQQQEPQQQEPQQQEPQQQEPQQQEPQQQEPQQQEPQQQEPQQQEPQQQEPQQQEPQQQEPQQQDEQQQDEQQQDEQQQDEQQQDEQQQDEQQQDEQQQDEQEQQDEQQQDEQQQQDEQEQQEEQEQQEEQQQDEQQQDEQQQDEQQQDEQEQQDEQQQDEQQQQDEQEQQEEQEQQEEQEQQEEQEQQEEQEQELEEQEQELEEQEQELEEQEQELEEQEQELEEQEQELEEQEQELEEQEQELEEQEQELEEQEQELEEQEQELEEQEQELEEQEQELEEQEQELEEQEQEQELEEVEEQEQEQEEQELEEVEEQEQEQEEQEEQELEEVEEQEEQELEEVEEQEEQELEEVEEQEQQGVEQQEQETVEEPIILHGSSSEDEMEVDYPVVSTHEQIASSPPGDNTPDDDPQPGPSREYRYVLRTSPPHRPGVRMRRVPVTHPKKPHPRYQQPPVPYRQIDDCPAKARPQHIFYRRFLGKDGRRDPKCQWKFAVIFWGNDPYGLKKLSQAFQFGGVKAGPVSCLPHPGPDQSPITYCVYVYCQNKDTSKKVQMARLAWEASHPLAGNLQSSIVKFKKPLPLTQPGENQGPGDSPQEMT
RanGTP-Impb inh – inhibitors of RanGTP-importin-beta interaction, primary screen, biochemical, FRET, CFP-Ran, YFP-importin-beta, homogeneous; Ran GTPase (GTP-bound) - importin-beta complex; cell-free CFP-Ran/YFP-importin-beta FRET ratio; inhibition, % (concentration not given with the values); 300,000 tested, 1.1% active;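 active = most replicates above 15%; inconclusive = exactly half above 15%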;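 also: 0% = DMSO wells and 100% = Ran loaded with GDP instead of GTP; wells of about 40 µL received 100 nL stock; the first replicate is given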
Calb FLC – C. albicans growth inhibition with fluconazole, primary screen, CaCi-2 strain, Alamar Blue fluorescence; growth inhibition, % (no concentration beside the values); C. albicans CaCi-2 (fluconazole-resistant clinical isolate) + fluconazole, 48 h; 300,000 tested, 0.57% active;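 active = most replicates above 75%; inconclusive = exactly half above 75%; inactive = most below 75%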;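 also: all wells also contain fluconazole at 8 µg/ml as a sub-toxic cotreatment; 0% = median of DMSO wells and 100% = median of geldanamycin control wells; wells of about 8 µL received 7.5 nL stock; the first replicate is given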
ALR inh – inhibitors of human ALR sulfhydryl oxidase, primary screen, biochemical, H2O2 detection, HRP-luminol luminescence, single point | inhibition, % (no concentration beside the values) | 290,000 tested, 3.8% active | purified ALR, DTT oxidation | FAD-linked sulfhydryl oxidase ALR (Homo sapiens), P55789;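 active = mean and each replicate at 75% or more; inconclusive = only one of the two met; inactive = neither met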;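 also: stock transfer was 7.5 nL into about 7.5 µL; 0% = neutral wells and 100% = wells with inactivated enzyme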
An asterisk follows results filed as active; u = inconclusive; x = no result given; & = joins results of further samples.

SMILES | HNF4A DNA FP | B2AR ag | Vif TR-FRET | LANA-H2B inh | RanGTP-Impb inh | Calb FLC | ALR inh
CN(C)CCCN=Cc1c(O)n(Cc2ccc3c(c2)OCO3)c(=O)c2ccccc12 | x | x | u | -1.8 | -0.3 | 5 | -5
CCOC(=O)N1CCC(N(C(=O)Nc2ccc(Cl)c(Cl)c2)C(C)CC)CC1 (configuration not stated) | -3.8 | 1 | -1%&-6% | -1.3 | 0.2 | -5 | -5
Brc1ccc(-c2ncc(-c3ccccc3)cn2)cc1 | 0.0 | -3 | -6% | 7.8 | -2.2 | -5 | -5
COc1ccc(NC(=O)COC(=O)c2ccc(S(=O)(=O)N(C)c3ccccc3OC)cc2)cc1OC | -7.0 | 8 | 7% | -4.5 | -0.6 | -7 | -1
CC(C)C(NC(=O)c1ccccc1NC(=O)c1ccccc1)C(=O)NCCCn1ccnc1 (configuration not stated) | 5.2 | 3 | 6% | -8.4 | 0.1 | 5 | -2
O=C(Nc1cccc2ncccc12)c1ccc(-c2ccc(Cl)cc2Cl)o1 | 1.9 | 12 | 5% | -4.9 | 3.4 | 26 | -10
COC(=O)c1ccc(NC(=O)C(=O)N2CCN(C(=S)Nc3ccc(OC)cc3)CC2)cc1 | 2.2 | 19 | -9% | -0.2 | 4.5 | 7 | 2
COc1ccc(C2=C(C)C(N3CCN(C(=O)c4ccco4)CC3)=NS2(=O)=O)cc1 | -0.3 | -6 | x | 6.0 | 1.6 | 3 | -1
Cc1cccc(Nc2nc(-c3ccccc3)c(C(=O)Nc3cccnc3)s2)c1 | -4.6 | 11 | -6% | 2.3 | 0.4 | 39 | 18
CC1(CCC(=O)N2CCCC(N3CCN(c4cccc(C(F)(F)F)c4)CC3)C2)CC1 (configuration not stated) | 1.7 | 0 | x | 1.9 | 0.4 | -3 | -16
CCC(CC)C(=O)c1c[nH]c(C(=O)NCCCn2ccnc2)c1 | 6.2 | 0 | 1% | -0.6 | 1.3 | -5 | 0
CN(C)c1nc(Nc2ccc(Cl)c(Cl)c2)nc(N(C)C)n1 | 5.9 | -8 | -2% | -0.3 | 1.3 | -1 | -5
CCOc1cccc(-c2c(C(=O)N/N=C(\C)c3cccnc3)nnn2-c2nonc2N)c1 | 0.7 | -12 | x | 0.6 | -3.2 | -9 | 6
Cc1ccc(C(=O)COc2ccccc2-c2ccccc2)cc1C | 1.6 | -5 | 8% | 3.0 | -1.0 | 6 | 1
O=C(c1cnc2n(c1=O)CCS2)N(c1ccccc1)C1CCCCC1 | 4.1 | -10 | 31% | -3.0 | 3.7 | -1 | -5
COc1ccc(Cl)cc1NS(=O)(=O)c1c(C)[nH]c(=O)[nH]c1=O | -1.1 | 0 | -5% | 3.7 | -2.0 | 1 | 1
Cc1cc2nc(C3CCN(Cc4nnnn4Cc4ccccc4)CC3)[nH]c2cc1C | -3.5 | -6 | 3% | -1.5 | -11 | u | 0
CCCOc1ccc(OCCOCCN2CCc3ccccc3C2)cc1 | 0.5 | -6 | 2% | -1.4 | -0.1 | 24 | -9
CC(=O)Nc1ccc(S(=O)(=O)Nc2ccc(Cl)nn2)cc1 | -1.8 | 9 | -1% | 0.7 | 0.5 | -6 | 9
CCCCC1CCC(C(=O)NCc2ccc3c(c2)OCO3)CC1 (configuration not stated) | 1.1 | 2 | -4% | -2.3 | 92* | -9 | -8
COC(=O)c1c(C(=O)NCc2ccccc2)ncn1CC(O)COc1ccccc1 (configuration not stated) | -1.4 | 0 | 2% | -2.8 | -1.0 | 8 | x
CN(C(=O)CSc1ncnc2scc(-c3ccccc3)c12)C1CCS(=O)(=O)C1 (configuration not stated) | 5.4 | -3 | 6% | -0.6 | 1.9 | 3 | -21
C#CC[N+]1(CC#Cc2cccc3ccccc23)CCOCC1 | 1.4 | -1 | 8% | 1.6 | 3.8 | 6 | 4
COc1ccc(C(c2nnnn2C2CCCC2)N2CCC(C)CC2)c(OC)c1 (configuration not stated) | 0.4 | -3 | -4%&-8% | 0.0 | 4.2 | 9 | -2
COc1ccc(CNc2nc(-c3ccccc3)nc3ccccc23)cc1OC | -0.4 | 5 | -6% | 7.2 | 0.7 | 10 | -18

Retrieved by compound from the entries so far:
SMILES | HNF4A DNA FP | B2AR ag | Vif TR-FRET | LANA-H2B inh | RanGTP-Impb inh | Calb FLC | ALR inh
CCCCC1CCC(C(=O)NCc2ccc3c(c2)OCO3)CC1 (configuration not stated) | 1.1 | 2 | -4% | -2.3 | 92* | -9 | -8
CN(C)c1nc(Nc2ccc(Cl)c(Cl)c2)nc(N(C)C)n1 | 5.9 | -8 | -2% | -0.3 | 1.3 | -1 | -5
CN(C)CCCN=Cc1c(O)n(Cc2ccc3c(c2)OCO3)c(=O)c2ccccc12 | x | x | u | -1.8 | -0.3 | 5 | -5
C#CC[N+]1(CC#Cc2cccc3ccccc23)CCOCC1 | 1.4 | -1 | 8% | 1.6 | 3.8 | 6 | 4

Additional records follow:
SMILES | HNF4A DNA FP | B2AR ag | Vif TR-FRET | LANA-H2B inh | RanGTP-Impb inh | Calb FLC | ALR inh
CCn1c(SCC(=O)Nc2ccc(C)cc2)nc2nc3c(cc2c1=O)COC(C)(C)C3 | -6.4 | 0 | x | -2.9 | 0.7 | 38 | -7
CC1CCC2(CC1)SCC(=O)N2c1ccccc1 (configuration not stated) | -2.6 | 4 | 0% | -1.8 | 0.3 | -3 | 45
O=C(Cc1ccc(-n2c(=O)[nH]c3ccccc3c2=O)cc1)N1CCN(c2cccc(Cl)c2)CC1 | 3.8 | -1 | 0% | -5.7 | 2.5 | -1 | -46
CCN(C[C@H]1N[C@@](C)(C(=O)OC)[C@H]2C(=O)N(Cc3ccccc3)C(=O)[C@@H]12)S(=O)(=O)c1ccccc1 | 0.4 | 11 | -3% | -81 | x | x | 2
NS(=O)(=O)c1ccc(-n2nc(C(=O)O)cc2-c2ccc(Cl)cc2)cc1 | -1.8 | -6 | 1% | -1.3 | -1.1 | -5 | 8
CCCN(CCC)C(=O)c1c(C)[nH]c(C(=O)OCC)c1C | 18 | x | -6% | -7.5 | 3.1 | 6 | -5
O=C(c1ccc(Br)o1)N1CCN=C1SCc1cccnc1 | 2.9 | -4 | 1% | 1.2 | 2.2 | -2 | 100*
CC1=CC2=NC(=O)/C(=C/c3cccs3)C(=N)N2O1 | 5.7 | -4 | 1% | -3.0 | 3.4 | 11 | -7
COCCOC(=O)c1c(C)n(C)c2ccc(OC(=O)c3ccco3)cc12 | 2.2 | 4 | 2% | 1.8 | 4.3 | 41 | -1
Cc1ccc(C2c3c(oc4ccccc4c3=O)C(=O)N2c2nnc(C(C)C)s2)o1 (configuration not stated) | 3.4 | -16 | u | -1.8 | -2.0 | 1 | 97*
COc1ccc(CCNC(=O)c2cccc(NC3=NC4CS(=O)(=O)CC4S3)c2)c(OC)c1 (configuration not stated) | 2.2 | 2 | -4% | -1.3 | 2.7 | -4 | -4
CSCCc1nc(SCC(=O)Nc2nnc(C)s2)[nH]c1C | 2.5 | -2 | 2% | 4.2 | 1.2 | -3 | 0
CNC(=O)COC(=O)CCC(=O)c1cccs1 | -1.0 | 0 | -5% | 0.1 | -0.1 | -5 | -9
COc1cc(C=NNc2ccc(S(=O)(=O)Nc3ccccc3C(=O)O)cc2[N+](=O)[O-])ccc1O | -3.3 | -4 | x | -3.8 | x | x | 99*
Cc1cc(N2CCCC2=O)cc(C)c1S(=O)(=O)NCCOc1ccccc1 | -2.4 | -12 | 8% | -0.2 | -5.7 | -14 | 1
CN(CCc1ccccn1)C(=O)CCC1CCCN(C(=O)NC2CCCCC2)C1 (configuration not stated) | -2.5 | -6 | x | -0.3 | 4.4 | 2 | -4
C=CCN1C(=O)C(O)(CC(=O)c2ccc(N)cc2)c2ccccc21 (configuration not stated) | -1.6 | 1 | 20% | 1.9 | 5.8 | 0 | -2
Cc1ccc(NC(=S)NC(=O)c2c(-c3ccccc3Cl)noc2C)cc1 | 2.2 | 2 | 2% | -0.1 | 2.8 | 10 | x
COC(=O)c1ccc(Oc2c(Cl)cccc2[N+](=O)[O-])cc1 | -0.9 | 1 | -6% | 11 | -3.0 | 11 | -2
O=C(O)c1cc(S(=O)(=O)N2CCN(S(=O)(=O)c3ccc4ccccc4c3)CC2)ccc1Br | -7.3 | -6 | x | 1.0 | x | x | 16
O=C(CSCc1ccc(Cl)cc1)N/N=C/c1ccc(Cl)cc1Cl | 0.4 | 6 | 18% | -1.8 | -4.1 | 23 | -2
COc1ccc(-n2nc(C(=O)NCC(=O)NCc3ccco3)c3ccccc3c2=O)cc1 | -0.8 | -6 | -6% | 2.9 | 2.0 | 1 | -7
Cc1c(NC(=O)CN(C)CC(=O)Nc2ccc(F)c(F)c2F)c(=O)n(-c2ccccc2)n1C | 2.0 | -3 | -7% | -2.1 | x | x | -2
CN1CC2(C)OC(=O)C(Cl)=C2CC1c1ccccc1 (configuration not stated) | 0.3 | 1 | 0% | -0.1 | -4.4 | -3 | -10
COc1ccc(S(=O)(=O)NCc2ccccn2)cc1 | 1.7 | -1 | 74% | -4.2 | 8.6 | -9 | x
(further entries)
SMILES | HNF4A DNA FP | B2AR ag | Vif TR-FRET | LANA-H2B inh | RanGTP-Impb inh | Calb FLC | ALR inh
O=C(OCCN1CCOCC1)C1(c2ccccc2)CCCCC1 | x | x | x | 1.0 | 0.6 | -17 | 3
CCC(C)Nc1cc(C)nc2ncnn12 (configuration not stated) | -0.4 | -3 | -7% | 0.1 | -2.2 | 13 | -3
Cc1nc2cc(NC(=O)NC(C)(C)C)ccc2n1C | 2.8 | -1 | x | 4.8 | -1.6 | -9 | -13
Cc1ccc(C(=O)COC(=O)C(C)N2C(=O)C3C4C=CC(C4)C3C2=O)cc1C (configuration not stated) | 2.0 | -9 | x | 1.3 | 7.0 | 5 | 31
Cc1cccc2sc(NC(=O)CSCc3ccccc3)nc12 | -0.1 | -1 | -3% | -1.3 | -4.4 | -14 | 23
CCOC(=O)c1ccc(NS(=O)(=O)N2CCCCCC2)cc1 | 1.8 | -3 | 4% | -3.1 | -5.2 | -2 | -4
Cn1nccc1C(=O)N1CCN(c2ccccc2Cl)CC1 | 0.0 | -3 | -2% | 5.3 | -3.8 | -11 | 1
O=C(CSc1ncccn1)Nc1ccc2[nH]c(=O)[nH]c2c1 | 5.5 | 1 | 1% | -6.0 | -2.6 | -2 | 17
Cc1ccc(C(=O)Nn2c(C)nc3ccccc3c2=O)cc1C | 2.2 | -19 | -6% | 0.1 | 5.7 | -13 | 0
CC1(C)N=C(/C=N/O)C=[N+]1[O-] | 0.6 | -5 | 1% | 8.5 | 0.8 | -2 | -3
CCCC(=O)OC1CC(C)N(C(=O)c2ccccc2)c2ccc(C)cc21 (configuration not stated) | -2.5 | 12 | 12% | 4.7 | -0.4 | -1 | -3
O=C(CCNS(=O)(=O)c1c(Cl)cccc1Cl)OCC(=O)c1ccccc1 | -2.5 | -2 | 11% | -8.4 | 3.2 | 2 | -4
COCCn1c(SCC(=O)Nc2ccc3c(c2)OCCO3)nnc1C(C)C | 2.5 | 4 | x | 1.1 | -0.9 | 0 | -6
C=CCNC(=O)COC(=O)c1cc(S(=O)(=O)N2CCCCC2)ccc1Cl | 0.6 | -4 | 12% | 1.3 | -2.0 | -3 | -19
Cc1cc(C(=O)NCCc2ccccc2)ccc1[N+](=O)[O-] | 5.5 | -4 | -1% | 1.6 | -1.7 | -9 | -2
C/C(=N\NC(=O)c1ccncc1)c1ccc(N(C)C)cc1 | 7.5 | -1 | -11% | 5.1 | -0.5 | -4 | 91*
